Rango-impB inh: qHTS Assay for Inhibitors of Rango (Ran-regulated importin-beta cargo) - Importin beta complex formation | Importin subunit beta-1 (Homo sapiens), Q14974 | Rango CFP/YFP FRET sensor + importin beta, 45 min | Potency, µM (series often up to 92.2 µM), without a hit: at the top dose inhibition of complex formation | hit rate 0.031% among 340,000 | AID 540263, 2011; active = rising FRET ratio curve, often small or poorly fitted; inconclusive = mostly compound fluorescence or quenching in the first reads; inactive = flat curves in all reads;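 note: potency is the fitted concentration of half-maximal effect; 0% = DMSO wells and 100% = buffer wells lacking importin beta; nearly all actives have a fitted effect of over 15% in size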
Target sequence (Q14974 whole entry, looked up): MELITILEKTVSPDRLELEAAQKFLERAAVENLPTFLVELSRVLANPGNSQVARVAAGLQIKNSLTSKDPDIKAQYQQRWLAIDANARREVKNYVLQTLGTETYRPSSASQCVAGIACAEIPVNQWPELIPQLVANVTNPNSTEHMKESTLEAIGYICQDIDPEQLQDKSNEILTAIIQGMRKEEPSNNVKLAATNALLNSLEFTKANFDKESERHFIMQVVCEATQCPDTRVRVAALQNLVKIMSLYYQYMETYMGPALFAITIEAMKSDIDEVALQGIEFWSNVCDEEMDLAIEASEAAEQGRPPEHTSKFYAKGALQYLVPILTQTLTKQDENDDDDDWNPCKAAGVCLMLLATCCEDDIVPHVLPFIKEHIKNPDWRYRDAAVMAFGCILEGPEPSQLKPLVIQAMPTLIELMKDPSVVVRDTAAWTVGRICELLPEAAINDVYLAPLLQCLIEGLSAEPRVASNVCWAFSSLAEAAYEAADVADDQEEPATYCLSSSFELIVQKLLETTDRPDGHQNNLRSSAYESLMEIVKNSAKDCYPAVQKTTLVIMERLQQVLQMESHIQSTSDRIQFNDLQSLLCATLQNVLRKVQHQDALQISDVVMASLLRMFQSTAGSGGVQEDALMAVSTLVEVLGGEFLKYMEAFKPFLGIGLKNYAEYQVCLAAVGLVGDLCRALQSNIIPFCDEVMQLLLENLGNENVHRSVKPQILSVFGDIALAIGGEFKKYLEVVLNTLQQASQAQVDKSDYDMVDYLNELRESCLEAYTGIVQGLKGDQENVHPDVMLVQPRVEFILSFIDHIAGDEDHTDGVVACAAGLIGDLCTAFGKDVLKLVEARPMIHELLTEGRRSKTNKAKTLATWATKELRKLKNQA
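FRET biosensor Rango (snurportin 1 IBB between N-terminal EYFP and C-terminal Cerulean), 50 nM in PBS/1 mM DTT/0.02% Tween-20/0.1% BSA, preincubated 5 min RT with compound; 0.125 microM importin beta added, 45 min RT, CFP/YFP FRET ratio read.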
miR-21 FLuc: qHTS Assay for Modulators of miRNAs and/orActivators of miR-21. HeLa miR-21 FLuc reporter, luciferase, 48 h. Potency, µM (titrated, usually from 38.3 µM), for the others: at the top dose reporter change, positive = more light. 340,000 tested, under 10 active. AID 2288, 2010; active = well fitted rising curve with a large enough effect; inconclusive = small, poorly fitted or top-dose-only effect; inactive = no such curve, though single readings can be large or run the other way;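 note: % of control where 0% means no effect; miR-21 action dims this reporter so a rising signal means less miR-21 action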
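Using DMEM plus 10% FBS, HeLa miR-21-FLuc cells are incubated with test compounds (final up to about 40uM) for 48 hours; firefly luciferase signal is then imaged following reagent-mediated lysis.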
Rango dissoc inh: qHTS Assay for Inhibitors of RanGTP induced Rango (Ran-regulated importin-beta cargo) - Importin beta complex dissociation; Snurportin-1 (Homo sapiens) + GTP-binding nuclear protein Ran (Homo sapiens) + Importin …; Biochemical FRET Rango-importin beta, RanGTP-induced dissociation; Potency, µM (titrated, usually from 46.1 µM), without a hit: at the highest dose activity change, negative = inhibition; hit rate 0.071% among 340,000; AID 540253, 2011; active means falling FRET ratio curve, often poorly fitted, with flat reads before Ran was added; inconclusive means other falling curves, or compound fluorescence or quenching; inactive means flat or rising ratio curve;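 note: potency is the fitted concentration of half-maximal effect; % of control where 0% means no effect; nearly all actives have a fitted effect of over 45% in size; -100% = wells without RanGTP and RCC1; the record marks most hits as doubtful in a second field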
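Rango FRET biosensor (snurportin-1 IBB flanked by N-terminal EYFP and C-terminal CFP10) at 0.1 uM, with 0.25 uM importin beta in PBS, 1mM DTT, 0.02% Tween-20, 0.1% BSA. 0.6 uM Ran, 2mM GTP and 0.2 uM RCC1 were then added for 45 min at room temperature. Inhibition read as loss of FRET rise.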
GLA inh pH 4.5: qHTS Assay for Inhibitors of Human alpha-Galactosidase at pH 4.5; purified enzyme, 4-MU-alpha-Gal fluorescence, pH 4.5; AID 1467, 2008; Alpha-galactosidase A (Homo sapiens), P06280; 230,000 tested, under 10 active; activity change, negative = inhibition, % at 105 µM; inconclusive = small, poorly fitted or top-dose-only inhibition, or a rising curve; inactive = flat fitted curve, though single readings scatter; no compound was filed as active;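 note: 0% = full activity with enzyme and -100% = basal without enzyme; dose as in the result columns while the protocol names 77 µM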
* hit, by the source's call; ? = inconclusive; nt = no result given; & = joins results of further samples; [ ] = dose if it differs, or a comment.

SMILES	Rango-impB inh	miR-21 FLuc	Rango dissoc inh	GLA inh pH 4.5
CCOC(=O)c1nn(-c2ccccc2)c(=O)cc1SC(C)CC (centres undefined)	-1.0%	-2%	8%	0
CCc1ccc(/C=C2/SC(=S)N(CCCC(=O)Nc3ccccc3C(=O)O)C2=O)cc1	-0.5%	-7%	18%	nt
NC(=O)c1ccsc1NC(=O)CSc1nnc(Nc2ccccc2)s1	-3.6%	-12%	-1%	5
COCCNC(=O)CCCCCn1c(=S)[nH]c2ccccc2c1=O	0.2%	-3%	-17%	4
O=C(CSc1nc(C(F)(F)F)cc(=O)[nH]1)N1CCCC1	3.0%	nt	-12%	nt
COc1ccccc1NC(=O)COC(=O)c1cc(C)nc2ccccc12	-0.6%	nt	12%	nt
COc1ccc(NC(=S)N2CCN(S(=O)(=O)c3ccccc3)CC2)cc1	0.2%	-6%	-5%	nt
COc1ccc2[nH]c3c(c2c1)CCN1C(=O)C(CC(=O)NCC24CC5CC(CC(C5)C2)C4)C[C@H](C(=O)N2CCOCC2)[C@@]31C (some centres undefined)	-0.4%	nt	-11%	nt
Cc1ccc(S(=O)(=O)c2ccc(NN)cc2)cc1	-2.1%	-6%	3%	3
O=C(Nc1nnc(-c2ccco2)o1)c1cccc2ccccc12	4.5%	-8%	-9%	3
CCOc1ccccc1C1N=C(c2ccc(OC)cc2)CC(c2ccccc2O)N1 (centres undefined)	-2.5%	0%	3%	-1[21.1 µM]
COC(=O)C1=C(C(=O)OC)[C@@H]2N(Cc3ccccc3)c3ccccc3[C@@]23C[C@@H](CO)N(C(=O)NC2CCCC2)C3=N1	3.4%	5%	10%	-2
c1ccc(-n2nnnc2Oc2cccc3cccnc23)cc1	1.5%	17%	3%	-1
Cc1ccc(Cl)cc1NC(=O)C[n+]1ccc(Cc2ccc([N+](=O)[O-])cc2)cc1	0.5%	18%	2%	-10[21.1 µM]
COc1ccccc1CNC(=O)c1ccc(NS(=O)(=O)c2cccs2)cc1	0.0%	0%	2%	nt
O=C(Cn1cccc1C(=O)c1ccccc1)NCc1ccc(Cl)cc1	0.1%	-13%&-21%	-3%	-3
CC(=O)NC(C)C(=O)OCC(=O)Nc1ccc(Br)cc1 (centres undefined)	1.7%	-4%	10%	-6
CCOc1ccccc1CN1CCN(Cc2cc(=O)c3ccccc3[nH]2)CC1CCO (centres undefined)	0.2%	20%	23%	nt
Cc1nn2cc(-c3cccc(Cl)c3)cnc2c1Cl	?	-7%	-2%	4
COc1ccccc1NC(=O)c1ccccc1NS(=O)(=O)c1cccs1	1.0%	4%	2%	-7
Cc1onc(-c2c(F)cccc2Cl)c1C(=O)Nc1cc(S(=O)(=O)N2CCCCC2)ccc1O	-4.2%	nt	0%	nt
Cc1cc(CNC(=O)c2ccc(C)c([N+](=O)[O-])c2)c2ccccc2n1	1.3%	16%	6%	2
CC(Cc1c[nH]c2ccccc12)C(=O)O (centres undefined)	?	2%	-6%	2
CC(CC(=O)NCc1ccc(Cl)cc1)S(=O)(=O)c1ccc2c(c1)NC(=O)CO2 (centres undefined)	1.0%	18%	16%	nt
COc1ccc(N2CCN(CC(=O)c3ccccc3)CC2)cc1	-0.9%	-7%	-15%	nt
SMILES	Rango-impB inh	miR-21 FLuc	Rango dissoc inh	GLA inh pH 4.5
CCCCNC(=O)N1CCCC(N(C)CCc2ccc(OC)c(OC)c2)C1 (centres undefined)	-3.1%	0%	5%	nt
CCC(C)(C)NC(=O)CN(CC1CCCO1)C(=O)CCC(=O)Nc1nccs1 (centres undefined)	0.4%	-6%	-18%	-8
CC(=O)N1C(c2ccccc2)CC(=O)OC1c1ccc2c(c1)OCO2 (centres undefined)	0.4%	-3%	2%	6
Cc1cccc(NC(=O)CC2SC(=NC3CCCCC3)NC2=O)c1 (centres undefined)	1.2%	-5%	-24%	-14
O=S(=O)(/N=C/c1c(O)ccc2ccccc12)c1ccccc1	-3.2%	-5%	-21%	nt
Cc1ccc(N(C(=O)Nc2ccccc2)C2=NCC(C)S2)cc1 (centres undefined)	10%	-41%	8%	5
CC(=O)NCCC(=O)NCc1ccc(F)cc1	0.0%	0%	-5%	7
CCCCc1ccc(-c2csc(/C(C#N)=C/c3ccco3)n2)cc1	?	-10%	?	-1
Cc1ccc(-c2noc(C3CCCCC3)n2)cc1	-1.1%	-43%	5%	3
CC(Sc1nnc(-c2cccs2)n1N)C(=O)NCC1CCCO1 (centres undefined)	0.0%	nt	-5%	nt
COc1ccc(C2=NOC(COc3ccc([N+](=O)[O-])cc3)C2)cc1 (centres undefined)	2.4%	4%	10%	0
COc1ccc(-c2[nH]c(-c3ccc(C)cc3)nc2SCC(=O)NCc2ccco2)cc1OC	-0.6%	18%	-2%	-1
CC(C)c1ccc(NC(=O)NC2CC3CCC(C2)N3Cc2cccs2)cc1 (centres undefined)	0.7%	0%	23%	3
COc1ccc(-c2nnc3ccc(SCC(=O)N4CCCCCC4)nn23)cc1OC	-1.1%	-4%	1%	7
CC(NCC1(N2CCOCC2)CCCCC1)C(=O)N1CCc2ccccc21 (centres undefined)	1.1%	-11%	12%	2
CC(=O)C1C(c2ccco2)c2c(noc2C)CC1(C)O (centres undefined)	-1.9%	-3%	25%	7
CCO/C(C)=C1\C(=O)N(CC)c2ccccc21	1.9%	-3%	-23%	-1
CC(C)c1ccc(NC2(C#N)C(=O)Nc3ccccc32)cc1 (centres undefined)	?	-6%	12%	6
CC(=O)Nc1nc2ccccc2n1Cc1ccc(Cl)cc1	-1.6%	24%	6%	-5
CC(=O)Nc1ccc(NC(=O)Cn2c(CC(=O)N3CCCC3)nc3ccccc32)cc1	-2.2%	0%	7%	-1
Cc1c(Cl)cccc1NC(=O)COC(=O)CCc1nc2ccccc2n1-c1ccccc1	-0.4%	-1%	1%	-1
CCC(CC)CN1C(Nc2ccccc2)=NC[C@@H]1C	-4.6%	0%	22%	nt
CN(C)CCCOc1ccc(Cl)cc1Br	4.9%	-4%	-7%	2
Cn1cccc1C(=O)NCCc1ccc(Cl)cc1	0.6%	-56%	1%	nt
COc1ccnc(CN(C)C(=O)C2CCC(=O)N(CCN(C)C)C2)c1 (centres undefined)	6.1%	-1%	8%	nt
SMILES	Rango-impB inh	miR-21 FLuc	Rango dissoc inh	GLA inh pH 4.5
CCOC(=O)c1c(/N=C/c2cc(C)ccc2O)sc2c1CCN(C)C2	-4.5%	-6%	-13%	-10
CCCCNC(=O)CSc1nc2ccc(Nc3nc(N4CCOCC4)nc(N4CCOCC4)n3)cc2s1	-5.4%	4%	-9%	-14
CCN(CC)CCN1C(=O)c2oc3ccccc3c(=O)c2C1c1ccc(C)cc1 (centres undefined)	-4.8%	-22%	3%	-5
COc1cc(NC2=CC(=O)CC(C)(C)C2)cc(OC)c1	-3.4%	-1%	1%	-6
Cc1cccc(NC(=O)Cn2c(=O)n(Cc3ccccc3)c(=O)c3c(C)c(C)sc32)c1	0.1%	-2%	-11%	5
O=C(CNC(=O)c1ccc(Cl)cc1Cl)NCCCn1ccnc1	0.3%	-2%	?	-5
CSc1ncccc1C(=O)N1CCCC(Nc2ccc(C)c(C)c2)C1 (centres undefined)	0.4%	-1%	6%	nt
C=CCn1c(CCNC(=O)c2ccccc2F)nnc1SCC(=O)Nc1ccccc1F	-1.0%	-2%	-8%	nt
CC1CCCN(S(=O)(=O)c2ccc(C(=O)Nc3nnc(-c4ccncc4)o3)cc2)C1 (centres undefined)	0.4%	?	-18%	5
CCOC(=O)Cn1c(=O)c(C#N)cn(C(C)C)c1=O	0.3%	-2%	-1%	-3
O=C(N/N=C/C(Br)=C/c1ccccc1)c1ccccc1F	3.2%	-17%	-11%	nt
O=C(N[C@H](C(=O)O)c1ccccc1)C1CCC(Cn2cnc3ccccc3c2=O)CC1 (some centres undefined)	0.0%	-2%	-19%	2
COc1ccc2c(c1OC)C(=O)OC2Nc1ncccc1C (centres undefined)	-2.0%	-2%	-14%	-11
O=C(Nc1nnc(CCc2ccccc2)s1)C1CCCO1 (centres undefined)	-1.7%	-29%	12%	-4
Cc1nn(Cc2ccc(Cl)c(Cl)c2)c(C)c1NC(=O)c1cc(CC(C)C)on1	-2.0%	15%	-12%	-11
O=c1c(O)c(-c2cccs2)oc2ccccc12	?	-13%	?	-11
C=CCN1CCN(C(=O)c2oc3ccccc3c2C)CC1	-1.3%	-19%	-19%	nt
CC(NC(=O)CCC1COc2ccccc2O1)c1ccccc1 (centres undefined)	0.0%	-7%	2%	-1
CC(=O)N1CCc2cc(S(=O)(=O)CCC(=O)O)ccc21	-0.8%	-5%	-16%	-3
COC(=O)c1ccc(-n2c(C)cc(C(=O)CSc3ccc(NC(C)=O)cc3)c2C)cc1	-0.5%	9%	3%	-6
O=C1CN(C(=O)c2c(F)cccc2F)C(c2ccc(F)cc2)c2cc(F)ccc2N1 (centres undefined)	-14%	6%	15%	nt
Cn1nnc(NCc2cc(Br)ccc2OCc2cccs2)n1	-1.2%	-6%	-2%	0
COc1cccc(/C=N/NC(=O)c2cc3c(OC)ccc(OC)c3[nH]2)c1O	2.9%	20%	-5%	nt
Cc1cc(C)cc(-n2ncc3c2CCCC3NC(=O)c2cc(C)[nH]n2)c1 (centres undefined)	-0.5%	15%	-12%	nt
COc1cc(/C=C/C(=O)OCC(=O)NCc2ccc3c(c2)OCO3)cc(OC)c1OC	-1.0%	nt	23%	nt

A few values from the results shown:
Under GLA inh pH 4.5, `COC(=O)c1ccc(-n2c(C)cc(C(=O)CSc3ccc(NC(C)=O)cc3)c2C)cc1` is entered as -6
Under Rango dissoc inh, `CCN(CC)CCN1C(=O)c2oc3ccccc3c(=O)c2C1c1ccc(C)cc1` (centres undefined) is entered as 3%

(continued)
SMILES	Rango-impB inh	miR-21 FLuc	Rango dissoc inh	GLA inh pH 4.5
CCCCCN(C(=O)CCC(=O)OCc1cccc(F)c1)c1c(N)n(CCCC)c(=O)[nH]c1=O	-1.2%	nt	?	nt
CN(C)S(=O)(=O)c1cccc(C(=O)OCC(=O)Nc2ccc3c(c2)OCCO3)c1	2.7%	nt	-10%	nt
CNc1ccc(OC)cc1-n1cnc(-c2ccc([N+](=O)[O-])cc2)c1	4.0%	-1%	3%	nt
N#Cc1cc(C(=O)c2ccccc2O)cn(-c2nccs2)c1=O	?	5%	?	-7
COc1ccc(N2CC(C)Cn3c2nc2c3c(=O)n(Cc3ccccc3)c(=O)n2C)c(OC)c1 (centres undefined)	3.2%	-7%	20%	-2
C=CCOC(=O)C1=C(C)NC(C)=C(C(=O)OCC=C)C1/C=C/c1ccccc1	-3.9%	-13%	-6%	nt
CCCCCCC#Cc1ccc2c(c1)COc1c3ccccc3nn1-2	1.2%	-14%	10%	-9
O=C(NCc1ccccn1)C1Nc2ccc(C(F)(F)F)cc2C2C=CCC12 (centres undefined)	?	nt	1%	nt
N#CCC(=O)N/N=C/c1coc2ccccc2c1=O	-0.8%	0%	-22%	-19
Cc1nnc(SCC(=O)N(CC(C)C)c2c(N)n(CC(C)C)c(=O)[nH]c2=O)n1-c1ccccc1	-3.3%	1%	-6%	1
CCOC(=O)C1CCCN(C(=O)Nc2c(-c3ccccc3)noc2C)C1 (centres undefined)	?	-2%	1%	8
CCOC(=O)C1CCN(C(=O)c2cc(OCC)c(OCC)c(OCC)c2)CC1	0.0%	-2%	0%	3
N#CCCN(C(=O)COC(=O)C1CCN(S(=O)(=O)c2ccc3c(c2)OCCO3)CC1)c1ccccc1	-1.5%	nt	-3%	nt
CCOc1ccccc1N(CC(=O)NC1CCCC1)C(=O)CCCC(=O)Nc1ccccn1	8.8%	2%	-7%	-2

A portion of the library, so the mix of outcomes need not match the whole.
